CtBP-E1A inh: CtBP/E1A binding inhibition. AlphaScreen GST-E1A/His-CtBP binding, 1536-well; active compounds read low; control for the full effect not named in the record. activity change, % (no concentration beside the values). hit rate 0.49% among 340,000. AID 651724; in the data active means activity change below about -65%; inconclusive means about -30% to -65%; inactive means above about -30%; also: % is scaled to controls: 0 for no effect and ±100 for the full control effect
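In 5 uL wells, 23 nL compound meets equimolar GST-E1A and His-CtBP (5X stock 125 nM each) for 2 h, 37 °C. Beads (5X, 50 ug/mL) then 1 h, 37 °C, dark.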
Six1-Eya2 inh: inhibitors of human Six1/Eya2 interaction; Q15475+O00167; AlphaScreen GST-Six1/His-Eya2 binding, biochemical; active compounds read low; control for the full effect not named in the record; activity change, % (test concentration not listed); hit rate 0.56% among 360,000; in the data active = activity change below about -65%; inconclusive = about -30% to -65%; inactive = above about -30%; also: % is scaled to controls: 0 for no effect and ±100 for the full control effect
Target sequence (O00167 whole entry, looked up): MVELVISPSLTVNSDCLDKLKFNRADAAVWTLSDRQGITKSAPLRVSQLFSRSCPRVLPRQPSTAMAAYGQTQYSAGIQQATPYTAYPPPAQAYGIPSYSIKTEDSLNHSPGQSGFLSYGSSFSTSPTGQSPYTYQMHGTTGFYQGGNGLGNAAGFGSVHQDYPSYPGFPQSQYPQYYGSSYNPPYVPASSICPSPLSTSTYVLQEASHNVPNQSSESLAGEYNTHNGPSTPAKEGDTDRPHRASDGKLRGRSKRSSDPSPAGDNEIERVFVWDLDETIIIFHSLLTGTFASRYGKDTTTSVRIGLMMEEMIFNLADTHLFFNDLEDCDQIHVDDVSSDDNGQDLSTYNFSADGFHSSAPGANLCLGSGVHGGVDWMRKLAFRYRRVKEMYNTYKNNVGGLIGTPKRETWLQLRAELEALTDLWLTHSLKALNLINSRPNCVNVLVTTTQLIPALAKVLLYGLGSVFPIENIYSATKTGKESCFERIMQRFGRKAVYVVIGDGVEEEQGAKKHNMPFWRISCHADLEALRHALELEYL
Target sequence (Q15475 whole entry, looked up): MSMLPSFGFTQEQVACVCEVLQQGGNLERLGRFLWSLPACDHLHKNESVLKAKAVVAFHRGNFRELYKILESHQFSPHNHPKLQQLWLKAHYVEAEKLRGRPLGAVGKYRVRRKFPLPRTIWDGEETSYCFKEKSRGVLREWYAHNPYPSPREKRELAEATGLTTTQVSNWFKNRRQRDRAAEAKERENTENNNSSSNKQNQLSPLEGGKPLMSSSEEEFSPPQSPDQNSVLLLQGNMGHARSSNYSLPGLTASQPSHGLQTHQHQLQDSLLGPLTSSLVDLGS
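AlphaScreen luminescence read after one hour at 37 °C in darkness. Pin-transferred compounds met GST-Six1 and His-Eya2 protein (5X stock 250 nM/500 nM) plus glutathione donor and Ni-chelate acceptor beads (5X, 50 ug/mL).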
D2 potentiator: human D2 receptor positive allosteric modulation; DiscoveRx D2 beta-arrestin cells, luminescence, 90 min; 100% = 57 uM dopamine signal; potentiation, % (concentration not given with the values); hit rate 0.23% among 360,000; P14416; active = potentiation of 50% or more; inconclusive = 30% to 50%; inactive = 30% or less;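 also: compound concentration not given in the record; tested on top of an EC20 dose of dopamine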
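PathHunter D2 cells, attached overnight at 37 deg C, received compound in DMSO plus dopamine at EC20 (50 nM final) for 90 min at 37 deg C. Beta-arrestin recruitment was read as luminescence after 1 h with detection reagent at ambient temperature.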
TRPML1 agonist: activates the human TRPML1 channel; activation, % (test concentration not listed); hit rate 0.12% among 410,000; TRPML1-expressing cells, Ca2+ dye fluorescence, FDSS; host cell line not named in the record; reference of the full effect not given here; Q9GZU1; in the data active = activation above about 50%; inconclusive = about 30% to 50%; inactive = below about 30%; also: 0% is about no effect; the text of the record puts the active cut at 80%
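Calcium fluorescence on an FDSS kinetic reader gave the read-out. Tet-induced TRPML1-DL cells were plated overnight, dye-loaded (Ca8 with quencher, 45-90 min, room temperature, dark), then read 110 s after compound addition, and again 110 s after 4uM final 54-4 (EC80).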
D2 ag: activates the human D2 dopamine receptor; AID 624465; DiscoveRx PathHunter D2 beta-arrestin, luminescence, 90 min; 100% = 57 uM dopamine signal; activation, % (concentration not given with the values); hit rate 0.084% among 360,000; in the data active = activation above about 40%; inconclusive = about 15% to 40%; inactive = below about 15%; also: compound concentration not given in the record; the text of the record calls up to 30% inactive
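DiscoveRx PathHunter D2 beta-arrestin cells (2,100/well) attached overnight, then compound-stimulated 90 min at 37 C in HBSS/10 mM HEPES/0.1% Tween-20 buffer; beta-galactosidase complementation read by luminescence after 1 h at ambient temperature. Dopamine 57 uM final (EC100) as control.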
PINK1 expr mod: modulators of PINK1 expression; PINK1 immunofluorescence, high-content cytometry, 24 h; Potency, µM (highest dose often 76.6 µM), without a hit: at the highest dose activation (PINK1 increase), usual class: activators; hit rate 0.2% among 410,000; AID 624263; active = well fitted activation curve with a large enough effect; inconclusive = small, poorly fitted or top-dose-only effect; inactive = flat fitted curve, though single readings scatter; cell line not stated here;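 also: potency is read from the fitted curve at half-maximal effect; % of control where 0% means no effect; nearly all actives have a fitted effect of over 65% in size; a mitochondrial uncoupler was the plate control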
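PINK1 protein, normally rapidly degraded, was detected by immunofluorescence after 24 hour compound treatment of a stable cell line. Titration data (5 concentrations) came from laser-scanning cytometry, with CCCP-treated wells as controls.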
Active calls of the source: *; ? = inconclusive; nt = no result given; & = joins results of further samples; [ ] = another dose, or the depositor's remark.

SMILES | CtBP-E1A inh | Six1-Eya2 inh | D2 potentiator | TRPML1 agonist | D2 ag | PINK1 expr mod
Cc1cc(=O)oc(C)c1C(=O)NNC(=O)C1(C)CC1Br (configuration not stated) | 7 | -2 | -1 | -0.4 | -1.6 | -0.8%
O=C(CN1C(=O)CSc2ccc(S(=O)(=O)N3CCCCC3)cc21)NCc1cccnc1 | 10 | -5 | -6 | 0.3 | -0.9 | 0.7%
COc1ccc2c(c1)C(=O)N(c1ccccc1)C(=O)C2 | 0 | 1 | 20 | 0.1 | -2.9 | -2.7%
Cc1nnc2ccc(-c3cccc(NC(=O)c4ccc(Br)o4)c3)nn12 | -65* | ? | -17 | 0.5 | 2.2 | 5.7%
CCOC(=O)[C@]12CCCC=C1N(Cc1ccc3c(c1)OCO3)C(=O)[C@H](CC(=O)N1CCCCC1)C2 | 1 | 3 | nt | -1.1 | nt | -0.5%
CC[C@@]1(C(=O)OC)N[C@H](CN(C)C(=O)c2ccc(F)cc2)[C@@H]2C(=O)N(Cc3ccccc3)C(=O)[C@@H]21 | 25 | 19 | -1 | -0.9 | -0.1 | 1.4%
COc1ccccc1OC(=O)CCN1c2ccccc2Sc2ccccc21 | 4 | -11 | 7 | 2.3 | 1.6 | 0.1%
CC(C)Cn1ccc(=O)n(CC(C)C)c1=O | -24 | -8 | -5 | 0.4 | -5.1 | -0.7%
COc1ccc(CC2SC(=Nc3ccc(F)cc3)NC2=O)cc1 (configuration not stated) | 0 | -4 | -7 | 1.2 | 1.1 | 1.4%
COc1ccc(NC(=O)C[C@H]2C(=O)N(c3ccc(OC)cc3)C[C@@H]2c2ccc(Br)cc2)cc1 | -18 | -22 | -1 | -0.5 | -11 | 1.6%
Cn1c(=O)c(-c2cc(Br)ccc2N)nc2ccccc21 | -20 | -27 | -25 | 0.9 | -5.7 | 4.5%
O=C(c1ccccc1)N1CCCC(c2nc3c(nnn3Cc3ccccc3)c(=O)[nH]2)C1 (configuration not stated) | -26 | -10 | -5 | -0.5 | -2.2 | -1.4%[38.3 µM]
CCOc1ccc(NC(=O)COc2ccc(C(=O)N3CCC(C(N)=O)CC3)cc2OC)cc1 | 15 | 3 | 16 | 0.0 | -1.3 | 0.7%
Cn1c(SCC(=O)NCC2CCCO2)nnc1-c1ccc(S(=O)(=O)N2CCCC2)cc1 (configuration not stated) | 0 | -1 | -9 | 0.8 | -0.3 | 2.1%[38.3 µM]
C=CCn1cc(/C=N/Nc2nc3ccccc3[nH]2)c2ccccc21 | ? | -29 | -3 | 0.0 | 1.1 | ?

Reprinted from the part before: four compounds; new compounds follow.
SMILES | CtBP-E1A inh | Six1-Eya2 inh | D2 potentiator | TRPML1 agonist | D2 ag | PINK1 expr mod
O=C(c1ccccc1)N1CCCC(c2nc3c(nnn3Cc3ccccc3)c(=O)[nH]2)C1 (configuration not stated) | -26 | -10 | -5 | -0.5 | -2.2 | -1.4%[38.3 µM]
CCOc1ccc(NC(=O)COc2ccc(C(=O)N3CCC(C(N)=O)CC3)cc2OC)cc1 | 15 | 3 | 16 | 0.0 | -1.3 | 0.7%
Cn1c(SCC(=O)NCC2CCCO2)nnc1-c1ccc(S(=O)(=O)N2CCCC2)cc1 (configuration not stated) | 0 | -1 | -9 | 0.8 | -0.3 | 2.1%[38.3 µM]
C=CCn1cc(/C=N/Nc2nc3ccccc3[nH]2)c2ccccc21 | ? | -29 | -3 | 0.0 | 1.1 | ?
CCc1cccc(NC(=O)CCc2c(C)nn(-c3ccc(N4CCOCC4)nn3)c2C)c1 | 2 | -2 | -5 | -0.8 | -1.1 | 0.4%
C=CCN(CC(=O)c1sc(C(=O)OCC)nc1C)c1cccc(Br)c1 | -5 | -9 | 4 | 2.0 | 1.9 | -1.2%
O=C(COc1ccccc1)NCC(=O)Nc1cccc2ccccc12 | -11 | 8 | -12 | 0.4 | 2.7 | 6.9%
O=C(Nc1nnc(Cc2ccccc2)s1)Nc1ccccc1F | -7 | 0 | -2 | 1.4 | -2.9 | 4.1%
CCOc1ccc(NC(=O)c2ccc(F)cc2F)cc1 | 0 | 0 | -8 | 1.1 | -3.8 | 5.3%
COc1cccc(CN2CCNC(=O)C2CC(=O)NCc2cn3ccc(C)cc3n2)c1OC (configuration not stated) | 7 | 2 | 1 | 1.4 | 0.9 | -1.0%
c1cnc2ccc(-c3ccc4ncccc4c3)cc2c1 | -3 | -1 | 3 | -0.3 | 2.0 | -1.3%
OC(c1ccc(F)cc1)c1ncc(-c2ccc3ccccc3c2)[nH]1 (configuration not stated) | -15 | -15 | -20 | -1.0 | -1.4 | 12%
Cc1cc(C)cc(OCC(=O)N2CCc3ccccc3C2)c1 | -3 | 6 | -4 | 2.2 | -4.9 | -0.5%
O=C(NNC(=O)c1sc2cccc(Cl)c2c1Cl)Nc1ccccc1 | 3 | 6 | -6 | 1.3 | -5.4 | 2.9%
CC(=O)c1c(C)[nH]c(C(=O)OCC(=O)c2ccc(C)s2)c1C | -23 | -2 | 1 | -0.4 | 0.6 | 0.7%
COc1ccc(C(=O)Nc2ccc(C(=O)N3CCC(C)CC3)cc2)cc1OC | 16 | 9 | -7 | -1.4 | -0.6 | 3.4%
COC(=O)c1ccc(-c2nc(-c3cccs3)no2)cc1 | 10 | 3 | -4 | -0.6 | -5.4 | 6.7%
COC(=O)c1ccc(COC(=O)c2ccc(S(=O)(=O)N3CCC(C)CC3)cc2)o1 | 3 | -9 | -30 | 0.1 | -2.0 | 24%
CCOc1ncccc1C(=O)Nc1cccc(S(=O)(=O)NC2=NCCC2)c1 | -17 | -12 | -3 | 0.6 | -4.6 | -0.8%
CCOC(=O)c1cc(C(=O)OCC)c(=O)[nH]c1N1CCCCC1 | nt | 2 | 7 | -1.5 | -0.3 | 0.7%
COCCNC(=O)c1cn(C)c2ccc(S(=O)(=O)N3CCCC3)cc2c1=O | nt | -1 | -6 | 2.9 | -3.1 | -1.8%
O=C(COC(=O)/C=C/c1ccc2c(c1)OCO2)NC1CC1 | nt | 8 | -5 | 0.5 | -5.5 | -1.2%
CCOc1ccc(/C=N/OCC(=O)NCc2ccc3c(c2)OCO3)cc1OC | -2 | 6 | -18 | -0.8 | 1.1 | 1.2%
Cc1ccc(C)c(NC(=O)Cn2ccn(-c3ccc4c(c3)OCO4)c(=O)c2=O)c1 | 7 | 0 | -2 | 0.4 | 2.4 | 0.8%
Cc1cc(C(=O)N/N=C/c2ccc(O)c([N+](=O)[O-])c2)n[nH]1 | -3 | 0 | -11 | -0.2 | -6.7 | 1.2%
CC(NC(=O)NC(=O)c1ccc(Cl)cc1Cl)C1CC1 (configuration not stated) | 4 | 22 | -8 | 1.5 | -3.7 | 6.9%
CCCCCCNS(=O)(=O)c1ccc(OC)c(OC)c1 | 3 | 5 | -4 | 1.2 | -1.7 | 2.5%[38.3 µM]
Cc1nn(Cc2cccc(F)c2)c(C)c1NC(=O)c1c([N+](=O)[O-])c(C)nn1C | 4 | 1 | -11 | 0.3 | -0.5 | 2.2%[38.3 µM]
C/C(=N\NC(N)=O)C1(C)CCCCC1 | 6 | 7 | -4 | -0.1 | -0.7 | 1.6%[38.3 µM]
CCc1ccc(OCC(=O)NNC(=S)NC(=O)C2CCCCC2)c(Br)c1 | -6 | -10 | -9 | -0.6 | -3.0 | 1.0%
C/C(=N\NC(=O)c1cccc2ccccc12)c1cccs1 | -2 | 1 | -7 | -0.1 | 1.0 | 0.2%
O=C(NCCN1CCN(c2ccccc2F)CC1)c1ccc2nc3ccccc3c(=O)n2c1 | ? | ? | -10 | 3.7 | 4.7 | -0.7%
CN(C(=O)c1cccc(NC(=O)Cc2ccc(NC(=O)C3CCN(C(=O)C4CC4)CC3)cc2)c1)C1CCC1 | 3 | -4 | 2 | -1.0 | -0.7 | -1.2%
CCN(c1ccccc1)S(=O)(=O)c1ccc(Cl)c(NC(=O)CN2CCN(C)CC2)c1 | 0 | -2 | -3 | -0.3 | -0.5 | 2.0%
COc1cccc(-c2nnc3sc(-c4cccs4)nn23)c1 | -4 | -1 | -3 | -1.5 | -2.5 | 1.5%
Cc1cc(C(=O)O[C@H]2[C@H](C)NS(=O)(=O)[C@H]3C[C@@H]4C=C[C@]23O4)cc([N+](=O)[O-])c1 | 3 | -2 | -11 | 0.3&0.3 | -3.3 | -0.4%
COCCCNC(=O)c1cc(Sc2ccc(F)cc2)nc2ccccc12 | 23 | 3 | -15 | -0.3 | -6.1 | 0.1%
COc1ccc(C2OC(=O)CC2C(=O)NCc2ccc(C)cc2)cc1OC (configuration not stated) | 3 | 5 | 0 | 0.2 | -2.9 | -0.5%
Cc1cccc(N2CCN(C(=O)CN(C)S(=O)(=O)c3ccc4c(c3)CCC(=O)N4)CC2)c1C | 10 | -2 | -1 | 0.1 | -1.9 | -0.4%
Cc1nn(-c2ccccc2)c2nc(N)c(C#N)c(-c3ccc(O)c(O)c3)c12 | -17 | -8 | -24 | 0.4 | 10.0 | -1.3%
CCCCNC(=O)C1(C)CCN1C(=O)c1ccc(F)c(C)c1 (configuration not stated) | -12 | 7 | -6 | -0.6 | -3.0 | 0.5%
COc1ccc(-n2c(Cc3cccn3C)nnc2SCC(=O)Nc2cccc(C)c2C)cc1 | -14 | -14 | 1 | 1.2 | -2.0 | 0.6%
COC(=O)c1cccc(C23CC4(C2)[C@H](CN(Cc2cccnc2)[C@@H]4c2ccccc2)C3c2ccc(Cl)nc2)c1 (some centres not stated) | -12 | -17 | -1 | 2.0 | 1.4 | 1.8%
Cc1[nH]c2ccccc2c1C(=O)NS(=O)(=O)Nc1ccccc1 | -2 | 1 | 0 | 0.8 | -0.8 | 1.5%
N#CCc1c(C#N)c(N)nc(N2CCN(S(=O)(=O)c3ccccc3F)CC2)c1C#N | 17 | 0 | -2 | 0.2 | 3.6 | 2.3%
CCNc1nc(NC(C)C)nc(NS(=O)(=O)c2ccc(Cl)cc2)n1 | 2 | 1 | -3 | 0.3 | -4.5 | -0.5%
Cc1ccsc1/C=C1\SC(N)=NC1=O | -4 | -20 | -23 | -0.7 | -3.6 | -2.6%
NC(=O)CSc1nc2cccnc2n1-c1ccc(F)cc1 | 1 | 14 | 2 | -1.1 | -0.5 | -0.7%
O=C(Nc1nnc(C2CC2)s1)c1cc([N+](=O)[O-])ccc1N1CCCCC1 | -18 | -26 | -30 | 1.2 | -5.4 | -1.6%
COc1ccc(-n2cc(-c3ccccc3)[n+]3c2CCCCC3)cc1 | 3 | -2 | -7 | -0.2 | 2.3 | 0.6%
O=C(Cc1c(F)cccc1Cl)NNC(=O)Nc1ccc2c(c1)OCO2 | 0 | 0 | -3 | 0.3 | -1.5 | -0.4%
COc1ccccc1/C=N/NC(=O)c1nnn(-c2nonc2N)c1-c1cccs1 | nt | -2 | -12 | 2.6 | -1.0 | 0.1%
CCOc1ccccc1CN1CCNC(=O)C1CC(=O)N(C)C1CCOCC1 (configuration not stated) | 2 | 2 | -3 | -0.6 | -0.8 | 2.0%
Cc1ccc(S(=O)(=O)NC(=O)C2(C)CCN2C(=O)C2CCCCC2)cc1 (configuration not stated) | 6 | 8 | -6 | -0.4 | -3.7 | -1.2%
COCCN(C(=O)COC(=O)C1CC1)c1c(N)n(Cc2ccccc2)c(=O)[nH]c1=O | 2 | 1 | 10 | 0.5 | -3.0 | -0.8%

Random draw from the library (roughly 1.3% active in at least one column).
